E coli growth = inhibitors of Escherichia coli growth | 330,000 compounds, 0.21% hits | OD600 absorbance (test concentration not listed) | OD600, 23 h; active compounds read low;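 active = OD600 absorbance below the run mean of sample wells minus 3.6 SD, in any replicate, cut at about 0.56 in these data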;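 also: stock transfer was 300 nL into about 60 µL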
UCH37 inh = human UCH37 deubiquitinating enzyme inhibition; purified proteasome/UCH37, Ub-AMC cleavage fluorescence; 330,000 compounds, 0.33% hits; inhibition, % (concentration not given with the values);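 active = mean of two replicates above 20%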;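 also: 0% = compound-free wells with enzyme and 100% = wells lacking proteasome; stock transfer was 100 nL into about 20 µL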
Target sequence (Q9Y5K5 whole entry, looked up): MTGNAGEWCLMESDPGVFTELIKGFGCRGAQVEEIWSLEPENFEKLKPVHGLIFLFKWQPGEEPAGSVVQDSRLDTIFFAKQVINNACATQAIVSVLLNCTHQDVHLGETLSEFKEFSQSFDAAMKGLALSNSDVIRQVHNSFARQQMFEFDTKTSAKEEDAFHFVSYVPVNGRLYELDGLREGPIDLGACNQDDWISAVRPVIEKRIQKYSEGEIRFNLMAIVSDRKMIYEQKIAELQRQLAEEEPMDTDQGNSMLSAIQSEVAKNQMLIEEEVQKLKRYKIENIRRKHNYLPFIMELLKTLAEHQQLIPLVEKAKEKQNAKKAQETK
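Material: Human UCH37 enzyme supplied as purified proteasome complex | Schedule: 30 min compound-proteasome preincubation then 25 min substrate reaction, room temperature | Detection: AMC fluorescence from Ub-AMC cleavage, excitation 355 nm, emission 460 nm | Benchmarks: Wells without proteasome as full block, compound-free enzyme plus substrate as uninhibited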
AF4-AF9 inh = blocks AF4 peptide binding to human AF9; P42568; AlphaScreen, biotin-AF4 peptide binding to FLAG-AF9; inhibition, % at 10 µM; 350,000 compounds, 0.47% hits; AID 651704;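 active = every replicate reaching a set inhibition limit, whatever the replicate mean, cut at about 25% in these data; inconclusive = mean inhibition reaches that limit but some replicates miss it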;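 also: 0% = plate neutral control median and 100% = total signal loss; the record names both 10 and 1 µM as test concentration; the first replicate is given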
Target sequence (P42568 whole entry, looked up): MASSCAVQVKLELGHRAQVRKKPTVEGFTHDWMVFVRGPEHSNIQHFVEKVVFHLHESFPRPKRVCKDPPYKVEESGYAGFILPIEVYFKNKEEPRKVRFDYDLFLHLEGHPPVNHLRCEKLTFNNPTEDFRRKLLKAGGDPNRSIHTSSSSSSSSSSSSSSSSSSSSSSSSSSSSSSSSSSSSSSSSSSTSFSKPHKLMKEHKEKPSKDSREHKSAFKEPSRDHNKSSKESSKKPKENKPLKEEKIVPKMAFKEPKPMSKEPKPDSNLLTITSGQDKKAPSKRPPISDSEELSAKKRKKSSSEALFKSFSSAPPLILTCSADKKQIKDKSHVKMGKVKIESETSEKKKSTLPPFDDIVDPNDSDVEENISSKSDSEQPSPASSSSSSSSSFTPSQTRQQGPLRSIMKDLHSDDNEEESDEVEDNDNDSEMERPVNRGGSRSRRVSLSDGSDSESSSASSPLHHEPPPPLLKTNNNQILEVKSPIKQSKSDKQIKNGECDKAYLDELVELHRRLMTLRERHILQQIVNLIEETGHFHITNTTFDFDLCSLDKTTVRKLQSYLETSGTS
FGF22 binding = shifts melting point of recombinant human FGF22 | Q9HCT0 | recombinant FGF22 thermal shift, SYPRO orange fluorescence; percent of sucrose octasulfate shift, DMSO zero | calls only at 9.99 µM | 340,000 compounds, 1.5% hits | AID 651658;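 active = melting point raised past a set limit in the mean and every replicate; inconclusive = no clear call; three in four hits are not shown here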
Target sequence (Q9HCT0 whole entry, looked up): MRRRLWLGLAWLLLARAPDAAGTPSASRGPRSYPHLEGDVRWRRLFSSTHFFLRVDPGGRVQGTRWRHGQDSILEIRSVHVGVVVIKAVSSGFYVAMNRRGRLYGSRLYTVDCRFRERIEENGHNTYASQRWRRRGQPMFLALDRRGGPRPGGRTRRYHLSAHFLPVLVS
RanGTP-Impb inh = inhibitors of RanGTP-importin-beta interaction, primary screen, biochemical, FRET, CFP-Ran, YFP-importin-beta, homogeneous. 300,000 compounds, 1.1% hits. cell-free CFP-Ran/YFP-importin-beta FRET ratio. inhibition, % (no concentration beside the values);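 active = most replicates above 15%; inconclusive = exactly half above 15%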;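 also: 0% = DMSO wells and 100% = Ran loaded with GDP instead of GTP; wells of about 40 µL received 100 nL stock; the first replicate is given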
HNF4A DNA FP = change in binding of human HNF4 alpha to DNA | activity change, % at 10 µM | 360,000 compounds, 0.3% hits | HNF4a-FITC DNA binding, fluorescence polarization, 1 h; in the data active = activity change above about 30%, passing the limit was not always enough;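 also: controls were the assay level and a saturating level of protein; the project sought stronger binding though the title names inhibitors; some compounds called inactive have numbers as strong as hits; positive values seem to mean higher polarization but the record does not say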
Vif TR-FRET = HIV-1 Vif–A3G interaction blockers – biochemical, TR-FRET, GST-Vif 1-94, biotin-A3G peptide, dose response retest, primary screen (AID 1117319); TR-FRET GST-Vif / biotin-A3G peptide binding; higher % means a stronger effect; test concentration not given here; strong numbers were not always called active; inhibition, %, or IC50 in µM where a hit was titrated; 260,000 compounds, 0.57% hits;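 active = above the screen mean plus three standard deviations and confirmed in dose response; inconclusive = results disagree or hit not tested in dose response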;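 also: Vif residues 1-94 fused to GST binding biotinylated APOBEC3G peptide 110-148; 0% = full assay without inhibitor and 100% = GST in place of GST-Vif; retest series ran down from 100 µM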
An asterisk follows results filed as active; i = inactive; ? = inconclusive; · = not tested or not shown; & = joins results of further samples. A portion of the library (hit frequency here may not be typical).

Molecule	E coli growth	UCH37 inh	AF4-AF9 inh	FGF22 binding	RanGTP-Impb inh	HNF4A DNA FP	Vif TR-FRET
CC(C)CCOC(=O)C[N+](C)(C)CCOC1CC2CCC1(C)C2(C)C (stereo unspecified)	0.586	4.3	3.8	i	1.0	2.4	?
Cc1ccc(NC(=O)CSCC(=O)NC2=NCCS2)cc1	0.658	-2.9	-2.3	i	·	-1.4	-1.8%
COc1ccc([C@@H]2C[C@H]3[C@@H](CN2S(=O)(=O)c2ccccc2)C(=O)C[C@@H](c2ccccc2F)N3S(=O)(=O)c2ccc(C)cc2)cc1	·	·	2.1	i	·	-2.8	-4.6%
CCCCc1c(O)nc(SCC(=O)N2CCCCCC2)[nH]c1=O	0.638	3.6	-3.2	i	2.6	1.8	·
COc1ccc(C(CNC(=O)COc2ccccc2C)N2CCCC2)cc1 (stereo unspecified)	0.712	-0.7	0.9	i	-2.0	0.7	·
FC(F)Oc1ccc(/C=N/c2c(-c3ccc(OC(F)F)cc3)nc3n2CCS3)cc1	·	·	·	·	-2.3	2.3	22.2%
Cc1ccc(Nc2nc(Oc3ccc(=O)[nH]n3)nc(N(C)C)n2)cc1	0.745	1.4	·	·	·	-1.2	1.9%
CC(OC(=O)c1nsc(Cl)c1Cl)C(=O)NCc1ccc2c(c1)OCO2 (stereo unspecified)	0.729	6.4	-1.4	i	0.7	-1.4	?
O=C(/C=C\NCC(=O)c1ccccc1)c1ccc2ccccc2c1	0.671	-2.8	-1.9	i	-3.6	1.2	·
CCOc1cc(CN2CCCC(N3CCc4ccccc4C3)C2)ccc1O (stereo unspecified)	0.688	4.7	6.4	i	-0.2	0.8	-2.6%
Nc1ccc2nc(-c3ccc(N)c(Cl)c3)[nH]c2c1	0.721	-200.6	·	·	-1.2	4.7	18.6%
O=c1c2ccccc2nc2n1-c1ccccc1CCC2	0.695	-0.7	4.1	·	·	0.4	4.5%
Cc1cccc(NC(=O)CSc2nnc(NC(=O)c3ccco3)s2)c1	0.658	2.6	-2.4	i	5.3	2.8	0.1%
COc1cccc(/C=N/Nc2nc(Nc3ccc([N+](=O)[O-])cc3)nc(N3CCCC3)n2)c1O	·	·	2.5	i	0.4	-2.3	28.4%
CC1CCCN(C(=O)c2cc(-c3ccco3)nc3ccccc23)C1 (stereo unspecified)	0.673	i	2.0	i	·	-5.7	·
COc1ccccc1C(=O)NCCC(=O)Nc1ccc(S(=O)(=O)Nc2ncccn2)cc1	0.679	4.2	-1.6	i	·	-0.8	-3.1%
O=C(Cn1c(C(F)(F)F)nc2ccccc21)c1ccc(Cl)cc1	0.693	1.8	·	·	1.4	1.8	-2.7%
CCCN(Cc1ccccc1)C(=S)Nc1cccc(C)c1C	0.691	0.6	0.9	i	?	5.1	·
COc1cccc(CNC(=O)CCNC(=O)N2CC(=O)Nc3ccccc32)c1	·	·	-4.9	i	·	-3.3	-0.4%
O=C(CC1SC(=Nc2ccc(OC(F)F)cc2)N(CCN2CCOCC2)C1=O)Nc1ccccc1 (stereo unspecified)	0.668	4.2	7.9	i	-8.2	2.3	4.3%
O=C(NCc1ccccn1)c1ccc(Cn2c(=S)[nH]c3ccc(Br)cc3c2=O)cc1	0.681	1.6	-3.4	i	3.3	0.7	-0.3%
CC(=O)OC1CCC2(C)C(CCC3C2CC(=O)C2(C)C3CC(C(C(C)=O)C(C)=O)C2C(C)=O)C1 (stereo unspecified)	0.683	5.7	-1.0	i	·	-1.6	-4.7%
COc1nc(-c2ccccc2)nc(-c2ccccc2)c1C	0.681	-0.5	-7.1	i	0.0	-0.1	·
COCc1cc(=O)[nH]c2c1c(-c1ccccc1)nn2C	0.64	-11.7	0.3	i	-1.3	0.6	-6.3%
Cc1coc(C)c1C(=O)CC1(O)C(=O)Nc2cc(Cl)cc(Cl)c21 (stereo unspecified)	0.72	5.1	·	·	4.1	0.7	8.9%
CN(C)S(=O)(=O)c1ccc(-c2csc(N/N=C/c3ccco3)n2)cc1	·	·	-1.9	i	-4.9	0.1	·
COc1ccccc1CNC(=O)CN(C)Cc1ccc(SC)cc1	0.688	-0.8	4.5	i	0.8	0.1	·
COC(=O)Cn1cc(C(=O)C(C)(C)C)c2ccccc21	0.652	3.7	-12.0	i	-1.6	-0.1	·
Cc1c(NC(=O)CN2CCN(C(=O)c3ccco3)CC2)c(=O)n(-c2ccccc2)n1C	0.752	2.1	·	·	-2.7	-0.2	0.1%
Nc1[nH]c(C(=O)c2ccccc2)c(-c2ccc(C(F)(F)F)cc2)c1C(=O)NCc1ccc(Cl)cc1Cl	·	·	-1.2	i	·	5.2	·
COCC(C)N1CCC(n2nccc2NC(=O)CCOc2ccccc2)CC1 (stereo unspecified)	0.703	7.4	-0.6	i	3.9	-2.8	·
Clc1ccc(C2=CC(c3ccco3)n3ncnc3N2)cc1 (stereo unspecified)	0.651	-112.4	·	·	-82.9	-83.0	18.9%
Cc1nc(CNS(=O)(=O)c2ccc(F)cc2)cs1	0.647	1.7	-1.3	i	?	3.2	0.2%
O=C1Cc2cc(S(=O)(=O)Nc3ccccc3Cl)cc3c2N1CCC3	0.705	-2.4	1.4	i	-2.5	1.4	1.6%
CCSc1nnc(NC(=O)Cn2cnc3c2c(=O)n(C)c(=O)n3C)s1	0.7	4.2	0.3	i	2.1	6.8	-4.4%
C=C(C)C(=O)Nc1cccc(C2=NOC3(C2)C[C@@H](C(N)=O)N(C(=O)/C=C/C=C/C)C3)c1 (stereo partly specified)	·	0.6	-71.0	i	-4.5	-72.2	·
CCOc1ccc(N2CC(C(=O)Nc3cccc(S(=O)(=O)N4CCCCC4)c3)CC2=O)cc1 (stereo unspecified)	0.724	3.6	-11.3	i	-0.3	4.4	2.5%
CCCOC(=O)Oc1ccc2c(=O)c(Oc3cc(C)cc(C)c3)coc2c1	0.705	-8.0	-3.0	i	1.5	-1.5	·
CCOC(=O)CCCNC(=O)COC(=O)c1ccc(O)cc1	0.683	5.5	·	·	0.9	-2.8	-1.1%
O=C(O)c1ccc(N2CCCCCC2)c(N2C(=O)c3ccccc3C2=O)c1	0.745	0.3	·	·	-2.6	0.2	2.3%
Cn1c(=O)n(C)c2cc([N+](=O)[O-])c(N3CCN(S(C)(=O)=O)CC3)cc21	0.7	8.8	·	·	0.0	0.1	·
CCN1CCN(Cc2c(O)ccc3c(=O)c(-c4ccc(OC)c(OC)c4)c(C(F)(F)F)oc23)CC1	0.701	0.1	·	·	-2.8	-0.7	5.2%&-3.2%
Cc1ccc(-c2nn(C)c(=O)c3ccccc23)cc1CN1CCOCC1	0.703	0.7	·	·	-3.1	-4.4	-10.2%
CC(=O)Nc1cccc(C(=O)OCc2csc(CC(=O)Nc3ccccc3C)n2)c1	0.635	0.4	-3.9	i	·	3.3	9.2%
O=C(CSc1nncn1-c1ccccn1)Nc1cccc(Cl)c1	0.669	2.5	2.5	i	1.5	0.1	-5.3%
Cc1ccc(-c2csc(=S)n2CC(=O)OCC(=O)NC(C)C(C)C)cc1 (stereo unspecified)	0.652	2.1	·	·	-7.0	3.5	2.0%
O=C(COC(=O)c1ccc(S(=O)(=O)N2CCCCC2)cc1)NCc1ccco1	0.656	3.2	-9.7	i	1.0	-3.0	-10.9%
Cc1noc(C)c1CSCC(=O)OCC(=O)N1CC(=O)Nc2ccccc21	0.732	4.7	·	·	0.6	-1.1	10.7%
CCOC(=O)C1=NOC2COC3(CCN(c4ncccn4)CC3)OCC12 (stereo unspecified)	0.707	-6.6	-1.0	i	-2.8	10.7	-7.2%
CCn1c(-c2nn(C)cc2Cl)n[nH]c1=S	0.69	6.0	·	·	-4.1	-1.6	4.9%
O=C(/C=C/c1ccco1)NCCc1ccc(F)cc1	0.694	-0.8	1.8	i	6.5	-6.6	·
COc1ccc(OCc2nnc3n2N=C(c2ccc(OC)cc2)CS3)cc1	0.666	1.9	2.9	i	-4.0	-1.1	68.0%
O=C(Nc1ccnn1C1CCN(Cc2cc(Cl)ccc2O)CC1)c1cccnc1	0.64	4.1	0.6	i	1.0	2.7	-8.2%
O=C(c1cccs1)N1CCCC(c2nc3c(nnn3Cc3ccc(F)cc3)c(=O)[nH]2)C1 (stereo unspecified)	·	·	1.7	i	4.1	-0.5	·
O=C(Nc1ccc(N2CCCCC2)c(Cl)c1)c1ccc2c(c1)OCCO2	0.734	0.6	·	·	0.1	-0.3	-1.4%
COc1cccc(-c2noc(N)c2C#N)c1	0.691	0.9	·	·	1.6	1.0	-1.7%
O=C(NCC1CCCCC1)c1csc([C@@H]2C[C@H](O)[C@@H](CO)O2)n1	·	·	-0.4	i	·	0.2	·
Cc1ccccc1C(=O)N1N=C(c2ccc(NS(C)(=O)=O)cc2)CC1c1cccs1 (stereo unspecified)	0.643	3.3	5.7	i	-8.2	-2.1	-2.9%
CCc1cc(=O)oc2cc(OC(=O)CN3C(=O)NC4(CCCC4)C3=O)ccc12	·	·	-2.4	i	3.4	2.3	·
CN(C)S(=O)(=O)c1cccc(COc2ncnc3c(Cl)cc(Cl)cc23)c1	0.696	0.7	-0.3	i	5.7	0.9	·

2 compounds drawn at random from those above, as already listed:
Molecule	E coli growth	UCH37 inh	AF4-AF9 inh	FGF22 binding	RanGTP-Impb inh	HNF4A DNA FP	Vif TR-FRET
Nc1ccc2nc(-c3ccc(N)c(Cl)c3)[nH]c2c1	0.721	-200.6	·	·	-1.2	4.7	18.6%
CCCCc1c(O)nc(SCC(=O)N2CCCCCC2)[nH]c1=O	0.638	3.6	-3.2	i	2.6	1.8	·

New compounds follow.
Molecule	E coli growth	UCH37 inh	AF4-AF9 inh	FGF22 binding	RanGTP-Impb inh	HNF4A DNA FP	Vif TR-FRET
CCc1nnc(NC(=O)CSc2nnc(CNc3ccc(Cl)cc3)o2)s1	0.656	2.7	·	·	-4.7	-0.8	8.5%
CC(C)C[C@H]1CN(CCCC[C@H]2CNC(=O)C(=O)N2CCc2ccccc2)C(=O)C(=O)N1Cc1ccccc1	·	·	4.1	i	·	2.6	·
CN(C)c1nnnn1-c1cccc(Oc2ncc(C(F)(F)F)cc2Cl)c1	0.701	1.7	-0.3	i	-1.5	-4.7	?
O=C(NN=C1CCCCCC1)c1ccncc1	0.66	1.4	-7.5	i	·	2.2	·
O=C1c2ccccc2C(=O)N1CC(O)COc1ccc(Br)cc1 (stereo unspecified)	0.713	3.8	3.7	i	0.2	3.3	-4.2%
Cc1cc(C(=O)CS(=O)(=O)c2ccc(F)cc2)cc(C)c1O	0.635	4.8	-0.6	i	-1.9	-2.5	4.2%
Cc1ccc(-c2nn(-c3ccccc3)cc2C(=O)N2CCOCC2)cc1	0.683	2.3	·	·	-0.7	1.7	5.5%
CN(C)c1ccnc2sc3c(SCc4ccc(Cl)cc4)ncnc3c12	0.737	2.7	·	·	-2.1	-0.7	-7.5%
Cc1ccc(-c2csc(/C(C#N)=C(\O)CCl)n2)cc1	0.684	15.7	2.9	i	-0.7	-0.3	-33.2%
O=C(CN1CCN(C(=O)CNC(=O)c2ccc3c(c2)OCO3)CC1)Nc1cccc(F)c1	0.637	-0.3	-2.0	i	·	-3.1	-11.7%
COCCn1c(-c2ccccc2)csc1=Nc1cccnc1	0.646	5.7	18.5	·	0.4	0.2	2.1%
Cc1ccc(C)c(C(=O)CCC(=O)Nc2ccc(F)cc2)c1	0.611	-3.2	-4.3	i	-1.8	-3.2	6.8%
Cc1ccccc1OCC(=O)OCC(=O)NCCc1ccccc1	0.714	1.5	3.4	i	·	0.3	16.6%
CC(C)(C)Nc1nc(Oc2ccc(=O)[nH]n2)nc(N2CCOCC2)n1	0.661	3.0	-0.2	·	4.4	-4.2	2.1%
